HNF4A DNA FP = change in binding of human HNF4A to DNA, primary screen, biochemical, fluorescence polarization, FITC-DNA | Hepatocyte nuclear factor 4-alpha (Homo sapiens), P41235 | AID 1224865, 2016 | 1 h | activity change, % at 10 µM | actives 0.3% (n = 360,000); in the data active means activity change above about 30%, passing the limit was not always enough;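 further: controls were the assay level and a saturating level of protein; the project sought stronger binding though the title names inhibitors; some compounds called inactive have numbers as strong as hits; positive values seem to mean higher polarization but the record does not say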
Target sequence (P41235 whole entry, looked up): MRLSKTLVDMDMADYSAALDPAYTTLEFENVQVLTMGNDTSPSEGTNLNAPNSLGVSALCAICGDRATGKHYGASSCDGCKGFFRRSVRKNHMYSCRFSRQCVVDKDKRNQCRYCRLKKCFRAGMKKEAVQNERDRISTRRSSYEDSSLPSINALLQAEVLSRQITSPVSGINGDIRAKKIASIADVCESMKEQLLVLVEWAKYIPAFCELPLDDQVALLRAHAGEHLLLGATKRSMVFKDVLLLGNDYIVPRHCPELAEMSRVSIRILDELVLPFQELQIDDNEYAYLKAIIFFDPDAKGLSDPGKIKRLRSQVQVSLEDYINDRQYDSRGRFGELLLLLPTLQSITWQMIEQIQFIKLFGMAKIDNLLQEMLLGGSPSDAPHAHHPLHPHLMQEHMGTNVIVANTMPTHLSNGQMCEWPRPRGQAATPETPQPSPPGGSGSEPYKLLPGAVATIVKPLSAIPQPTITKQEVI
ALR H2O2 inh = inhibitors of human ALR sulfhydryl oxidase, primary screen, biochemical, H2O2 detection, HRP-luminol luminescence, single point. FAD-linked sulfhydryl oxidase ALR (Homo sapiens), P55789. purified ALR, DTT oxidation. inhibition, % (test concentration not listed). actives 3.8% (n = 290,000). AID 485317, 2010;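 active means mean and each replicate at 75% or more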;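 further: stock transfer was 7.5 nL into about 7.5 µL; 0% = neutral wells and 100% = wells with inactivated enzyme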
Target sequence (P55789 whole entry, looked up): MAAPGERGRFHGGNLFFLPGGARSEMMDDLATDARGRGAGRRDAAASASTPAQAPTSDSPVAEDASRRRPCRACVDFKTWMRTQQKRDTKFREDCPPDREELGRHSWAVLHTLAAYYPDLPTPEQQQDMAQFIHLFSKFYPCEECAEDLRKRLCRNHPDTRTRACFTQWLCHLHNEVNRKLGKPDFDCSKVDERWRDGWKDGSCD
UCH37 DUB inh = inhibitors of human UCH37 deubiquitinase, primary screen, biochemical, Ub-AMC cleavage, fluorescence; Ubiquitin carboxyl-terminal hydrolase isozyme L5 (Homo sapiens), Q9Y5K5; purified proteasome/UCH37; inhibition, % (no concentration beside the values); actives 0.33% (n = 330,000); AID 588478, 2011;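 active means mean of two replicates above 20%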;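 further: 0% = compound-free wells with enzyme and 100% = wells lacking proteasome; stock transfer was 100 nL into about 20 µL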
Target sequence (Q9Y5K5 whole entry, looked up): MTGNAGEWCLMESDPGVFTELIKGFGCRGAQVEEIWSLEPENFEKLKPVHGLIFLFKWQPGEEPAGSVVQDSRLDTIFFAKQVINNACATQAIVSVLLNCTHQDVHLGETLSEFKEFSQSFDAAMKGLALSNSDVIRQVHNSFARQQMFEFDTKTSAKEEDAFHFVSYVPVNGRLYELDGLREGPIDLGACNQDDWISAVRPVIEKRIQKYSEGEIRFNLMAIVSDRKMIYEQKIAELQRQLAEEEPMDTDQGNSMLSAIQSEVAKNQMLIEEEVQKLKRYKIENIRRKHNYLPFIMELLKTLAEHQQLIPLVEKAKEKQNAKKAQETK
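system = Proteasome-associated human UCH37 deubiquitinase | amount = 0.15 nM proteasome as dispensed | medium = pH 7.4 Tris-HCl (50 mM) with ovalbumin, ATP-MgCl2, DTT | incubation = 30 min preincubation with enzyme, 25 min cleavage at room temperature | detection = AMC fluorescence 355/460 nm | read-out basis = percent inhibition | controls = no-proteasome and no-compound wells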
E coli growth = E. coli growth inhibition, primary screen, OD600; Escherichia coli growth, 23 h; stronger effect = lower value; OD600 absorbance (no concentration beside the values); actives 0.21% (n = 330,000); AID 1053175, 2014;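 active means OD600 absorbance below the run mean of sample wells minus 3.6 SD, in any replicate, cut at about 0.56 in these data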;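 further: stock transfer was 300 nL into about 60 µL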
LANA-H2B inh = blockers of LANA interaction with H2A/H2B – biochemical, FP readout, HTS, primary screen; AID 2629, 2010; Protein LANA1 (Human herpesvirus 8 type P (isolate GK18)), Q9QR71; inhibition, % (concentration not given with the values); actives 0.6% (n = 320,000); cell-free LANA-H2A/H2B peptide, fluorescence polarization; in the data active means inhibition mostly above about 10%, no sharp cut-off; inactive means mostly below about 6.7%;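 further: stock transfer was 7.5 nL into about 10 µL; 0% = median of vehicle wells and 100% = median of positive control wells; one replicate is shown; the record names a cut of 25% in any replicate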
B2AR ag = beta2AR agonists driving receptor internalization, primary screen, cell-based, FAP fluorogen, flow cytometry | Beta-2 adrenergic receptor (Homo sapiens), P07550 | Am2.2-beta2AR cells; reference of the scale not given here | response, % (concentration not given with the values) | actives 0.43% (n = 340,000) | AID 504454, 2011;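 active means response above a set limit, near 3 SD of response in nonfluorescent compounds, cut at about 42% in these data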;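 further: stock transfer was 100 nL into about 11 µL; a reference agonist was the positive control; negative values mostly stem from fluorescent compounds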
FGF22 binding = binders of human FGF22 protein, primary screen, FGF22 synaptogenesis inhibitor project, biophysical, thermal shift, single point. Fibroblast growth factor 22 (Homo sapiens), Q9HCT0. recombinant FGF22 thermal shift, SYPRO orange fluorescence; percent of sucrose octasulfate shift, DMSO zero. calls only at 9.99 µM. actives 1.5% (n = 340,000);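 active means melting point raised past a set limit in the mean and every replicate; three in four hits are not shown here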
Active calls of the source: *; i = inactive; . = not tested or not shown.

SMILES	HNF4A DNA FP	ALR H2O2 inh	UCH37 DUB inh	E coli growth	LANA-H2B inh	B2AR ag	FGF22 binding
C/C(CC(=O)Nc1cc(C)ccn1)=N\NC(=O)C(=O)Nc1cccc(C)c1	-1.2	47.7	.	.	5.5	2.1	i
CCCCCC(=O)N(O)C1CC(=O)N(c2ccccc2)C1=O (stereo unspecified)	-1.3	1.8	3.4	.	-2.9	7.4	.
CC(=O)N1CCN(C(=O)c2ccc(OC3CCN(Cc4ccccn4)CC3)cc2)CC1	0.6	-13.6	.	.	-1.3	-5.8	i
COC(=O)c1ccc(N2CCN(S(=O)(=O)c3c(C)cc(C)cc3C)CC2)c([N+](=O)[O-])c1	2.5	-20.1	-0.8	0.703	-0.9	-9.4	.
C=CCc1cc(C)ccc1OCCCn1ccnc1	-3.2	-1.5	1.4	0.666	0.1	3.8	i
CCCc1cc(-n2cnc3ccccc32)n2c(nc3ccccc32)c1C#N	9.0	-11.8	-20.9	0.701	0.2	-1.6	.
COc1ccc(S(=O)(=O)N2CCN(C(=O)NCc3ccc(C)cc3)CC2)cc1	4.2	1.0	4.3	0.658	4.0	1.3	i
CCCCCCCN1CCN=C1N(C)C	-1.7	-6.4	3.9	0.698	-1.7	1.4	i
Cc1sc2ncn(CC(=O)N3CCN(c4ccccc4)CC3)c(=O)c2c1S(=O)(=O)N1CCOCC1	2.5	.	1.2	0.671	0.7	2.5	i
O=C(COc1ccccc1[N+](=O)[O-])N/N=C/c1ccncc1	1.8	-21.1	.	.	-1.6	-5.6	i
CCN(CC(=O)Nc1ccccc1C(F)(F)F)C(=O)CCS(=O)(=O)c1ccc(C)cc1	0.7	-5.1	0.1	0.714	3.0	-4.6	i
COc1ccc(CNC(=O)C[C@H]2C[C@H](C(=O)N3CCCCC3)[C@@]3(CCc4ccccc4)c4[nH]c5ccc(Cl)cc5c4CCN3C2=O)cc1OC	-5.3	.	2.4	0.695	.	7.0	i
Cc1ccc(F)cc1NC(=O)CCNC(=O)c1ccc([N+](=O)[O-])cc1	-0.7	0.1	1.7	0.715	-6.2	-3.2	i
BrC(=C\c1ccccc1)/C=N/N1CCN(c2ccccn2)CC1	-2.9	4.3	.	.	-1.3	1.1	.
O=C(NCc1ccc(Cl)cc1)C1CCN(S(=O)(=O)c2cccnc2)CC1	-1.1	3.5	1.0	0.712	0.0	-6.5	i
Cc1ccc(S(=O)(=O)N2CCCCC2)cc1NC(=O)COC(=O)c1ccc2c(c1)OCO2	3.7	-3.9	2.5	0.681	-1.7	7.2	i
CCCn1nc(C(=O)NC2CCCc3ccccc32)c2ccccc2c1=O (stereo unspecified)	0.2	.	3.8	0.68	.	-7.3	i
O=C(CSc1nnc(Nc2ccccc2)s1)NC1CC1	3.6	2.4	2.5	0.703	-0.1	-6.8	i
Cc1cc(C)nc(NC(=O)NC(=O)c2ccccc2)n1	3.5	-6.3	-0.2	0.709	1.8	7.9	i
COC(=O)CC1COc2ccccc2N1C(=O)c1cccc(C(F)(F)F)c1 (stereo unspecified)	-4.6	0.1	-1.1	0.707	3.3	-1.7	i
CCc1ccc(N2CC(O)=C(c3nc4ccccc4c(=O)[nH]3)C2=N)cc1	1.9	-2.4	-21.4	0.676	2.2	-8.2	i
CCC1CCCCN1C(=O)c1ccccc1OC1CCN(S(C)(=O)=O)CC1 (stereo unspecified)	3.0	-12.1	7.3	0.654	1.1	-6.4	i
COc1cccc(CNC(=O)C(=O)NCC(c2ccco2)N2CCOCC2)c1 (stereo unspecified)	-1.2	2.3	-5.1	0.721	-0.6	8.9	.
COc1ccccc1NS(=O)(=O)c1ccc(NC(=O)c2[nH]nc(OC)c2[N+](=O)[O-])cc1	3.6	2.1	7.6	0.727	1.3	9.5	i
CC(=O)CSc1ncnc2c1cnn2-c1ccccc1	-0.3	15.9	3.4	0.696	11.0	-4.7	i

Next structures follow:
SMILES	HNF4A DNA FP	ALR H2O2 inh	UCH37 DUB inh	E coli growth	LANA-H2B inh	B2AR ag	FGF22 binding
COc1cc(C(=O)Oc2cc(C)[nH]c(=O)c2[N+](=O)[O-])cc(OC)c1OC	1.4	1.0	2.0	0.688	-0.8	1.8	i
C#CCOCCOCCOCCNc1nc(N2CCN(C(=O)[C@H]([C@@H](C)O)n3cc(CCCCN)nn3)CC2)nc(N2CCN(C(=O)[C@H](C)n3cc(CCCN=C(N)N)nn3)CC2)n1	0.1	-10.4	-0.3	.	-5.9	6.1	.
CCOc1ncccc1C(=O)N1CCN(C(=O)c2ccccc2)CC1	1.8	.	5.0	0.694	1.6	6.8	i
Cc1ccc(C(=O)NC(C)c2ccccc2)cc1S(=O)(=O)N1CCOCC1 (stereo unspecified)	-1.3	22.6	.	.	-9.2	-0.3	i
COc1ccc(C(=O)NNC(=O)CNC(=O)C2CCCCC2)cc1	-3.6	-4.6	3.6	0.706	-7.0	2.8	i
Cc1ccc(-c2nc(=O)[nH]c3ccc(Br)cc23)cc1	0.7	-10.7	-30.5	0.664	-2.2	2.5	i
Cc1onc(-c2cccc(Cl)c2Cl)c1C(=O)O/N=C(\N)c1ccc([N+](=O)[O-])o1	-2.7	-37.8	.	.	0.3	0.7	i
COC(c1ccccc1)c1nnc(CCC(=O)N2CCN(CCOc3ccccc3)CC2)o1 (stereo unspecified)	0.4	-24.3	-0.5	0.662	1.4	0.7	i
COc1cccc(/C=C2\SC(N3CCCC(C)C3)=NC2=O)c1OC (stereo unspecified)	3.0	97.2*	9.4	0.673	-0.9	-3.8	i
COc1ccc(S(=O)(=O)NCCSCc2ccco2)cc1OC	1.8	3.1	4.3	0.704	0.7	9.4	i
Cc1ccnc(NC(=O)CNC(=O)c2ccccc2Br)c1	-0.7	-13.3	-1.0	0.691	10.1	3.1	i
COC(=O)c1ccc(-n2nnnc2SC)cc1	4.6	-4.5	1.7	0.637	-3.4	6.2	.
O=c1oc2ccccc2c(O)c1/C=C1\C=Nc2ccccc21	1.0	69.8	2.4	0.637	-1.3	48.0*	.
O=C(OCc1nnc(-c2ccc([N+](=O)[O-])cc2)o1)C1CCN(C(=O)c2ccc(F)cc2)CC1	-2.6	-3.1	5.8	0.679	1.7	7.1	i
CCOC(=O)Cc1csc(NC(=O)c2cc(C)c(C)s2)n1	2.3	.	3.9	0.694	-1.1	6.5	i
Cc1ccc(S(=O)(=O)N2[C@@H](c3ccc(Br)cc3)C(C(=O)O)=CC[C@H]2c2ccc3c(c2)OCO3)cc1	2.1	.	2.4	0.712	.	4.8	i
S=C(NCc1ccccc1)N/N=C/c1cccs1	-2.9	16.0	.	.	12.6*	-7.0	i
CC(C)(C)OC(=O)N1CCC(C(=O)Nc2cccc(C(=O)NCCCCc3ccccc3)c2)CC1	-1.0	.	.	.	.	4.5	i
Nc1c(C(=O)NCc2ccco2)nnn1CC(=O)Nc1ccccc1	2.8	6.1	5.6	0.747	0.7	-2.0	.
Fc1ccc(-n2cc(CNCCc3ccncc3)c(-c3ccccc3Cl)n2)cc1	3.5	-3.5	-0.6	0.688	-6.7	-17.6	i
Cc1nc2ccccn2c1C(=O)/C=C/c1cccc([N+](=O)[O-])c1	-3.9	54.3	7.5	0.722	-6.0	-8.2	i
O=C(C(=O)N1CCN(c2ccccc2)CC1)c1c[nH]c2ccccc12	0.0	51.3	3.4	0.694	2.0	1.8	i
C=CCn1c(Sc2ncc([N+](=O)[O-])s2)n[nH]c1=O	1.0	54.2	5.9	0.448*	0.3	32.9	i
O=C(c1ccccc1NS(=O)(=O)c1ccc(Br)cc1)N1CCOCC1	0.8	-4.9	2.7	0.709	-3.9	-0.4	i
CC1CCCCC1NC(=O)c1nn(C)c2c1CS(=O)(=O)c1ccccc1-2 (stereo unspecified)	0.6	3.5	-0.8	0.665	2.2	0.3	i

(cont.)
SMILES	HNF4A DNA FP	ALR H2O2 inh	UCH37 DUB inh	E coli growth	LANA-H2B inh	B2AR ag	FGF22 binding
CC(=O)c1c(C(=O)O)[nH]c(C(=O)O)c1C	1.1	9.6	5.3	0.689	-6.3	0.6	i
COc1ccc(-c2noc(CN(C(=O)c3c(-c4ccccc4Cl)noc3C)C(C)C)n2)cc1	0.1	-23.5	1.9	0.734	8.1	-0.5	.
[O-][n+]1cccc(C(O)c2ccccc2)c1 (stereo unspecified)	-0.7	.	3.0	0.704	-6.2	-3.0	i
CCOCCCNc1nc2nc3ccc(C)cn3c(=O)c2cc1C(=O)NCC1CCCO1 (stereo unspecified)	-0.9	.	i	0.676	1.3	-11.6	i
CCOC(=O)C1(S(=O)(=O)c2ccc(Cl)cc2)CCN(Cc2ccc(Cl)cc2)CC1	4.9	15.5	1.4	0.705	2.2	-1.2	.
O=C(NC1CCCCCC1)C1c2ccccc2C(=O)N1Cc1cccnc1 (stereo unspecified)	-5.2	-0.5	2.3	0.727	-1.6	-5.1	.
CC(=O)Nc1cc2c(cc1Cl)-c1ccccc1C2O (stereo unspecified)	3.1	.	4.3	0.68	.	-6.1	i
COc1ccc(S(=O)(=O)NCC(=O)N(CC(=O)NCC2CCCO2)Cc2ccccc2)cc1 (stereo unspecified)	-1.3	-6.3	-0.6	0.643	-1.9	-7.3	i
O=C(CCNS(=O)(=O)c1ccc(Br)cc1)NCCc1ccccc1	-0.9	-2.0	0.1	0.639	1.2	1.2	i
O=C(CN1CCN(C(=O)c2ccco2)CC1)Nc1ccc(Cl)c(S(=O)(=O)N2CCOCC2)c1	2.2	-1.2	6.7	0.725	-9.4	-7.2	i
COc1ccccc1S(=O)(=O)Cc1ccc(C(=O)N2CCOCC2)o1	-2.0	12.8	5.0	0.723	1.7	6.4	i
COc1ccc(OCc2nnc(SCC(=O)Nc3ccc(C)cc3)o2)cc1	-0.8	2.3	0.5	0.634	-0.2	9.0	i
CC(OC(=O)c1ccccc1O)C(=O)Nc1ccc(Cl)cn1 (stereo unspecified)	-0.5	3.5	0.8	0.656	0.1	-5.0	i
Cn1nc(-c2ccccc2)cc1NC(=O)Nc1ccc(F)cc1	4.2	38.9	3.7	0.7	-5.3	2.8	i
COc1ccc2c(c1)-c1c(sn(-c3ccccc3)c1=S)C(C)(C)N2	-1.6	.	7.2	0.677	2.6	8.2	.
COc1ccc(NC(=O)C(c2ccccn2)N(C(C)=O)c2ccc(C)cc2)cc1 (stereo unspecified)	-0.7	-16.1	2.1	0.67	-1.6	4.1	.
CCC(=O)N(Cc1ccc(C)cc1)Cc1cc2cc3c(cc2[nH]c1=O)OCO3	-5.4	-1.1	-29.1	0.738	-6.7	-6.5	i
CC1Cc2cccc3c(O)c(C(=O)c4nn[nH]n4)c(=O)n1c23 (stereo unspecified)	0.2	3.5	12.0	0.688	0.6	0.8	i
O=C(NNC(=O)C1CC1)c1cccc([N+](=O)[O-])c1	-1.7	-6.3	2.5	0.64	-2.9	1.3	i

Sorted by number of heavy atoms (falling): 3 of the compounds above
SMILES	HNF4A DNA FP	ALR H2O2 inh	UCH37 DUB inh	E coli growth	LANA-H2B inh	B2AR ag	FGF22 binding
Cc1ccc(S(=O)(=O)N2CCCCC2)cc1NC(=O)COC(=O)c1ccc2c(c1)OCO2	3.7	-3.9	2.5	0.681	-1.7	7.2	i
COc1ccc(S(=O)(=O)N2CCN(C(=O)NCc3ccc(C)cc3)CC2)cc1	4.2	1.0	4.3	0.658	4.0	1.3	i
C=CCc1cc(C)ccc1OCCCn1ccnc1	-3.2	-1.5	1.4	0.666	0.1	3.8	i

Screening results (PubChem BioAssay)

Not all compounds are listed; count on the stated rates, not on these rows.
